Mtb bLac sens – beta-lactam sensitization of Mtb H37Rv; M. tuberculosis H37Rv growth with meropenem, percent inhibition; hits of this screen are not shown here; inhibition, % at 25 µM; 330,000 compounds, 0.27% hits; AID 434955;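 active = about 74% or more and at least 40 points above the plate without the antibiotic, then above 30% in a dose series; inconclusive = first-round hits that could not be retested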;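 note: growth measured after seven days incubation then overnight dye step; 0% = bacteria only wells and 100% = bacteria with antibiotic; twin plates without the antibiotic show which effects depend on it; some results filed as inactive read as strong as hits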
Mtb growth – M. tuberculosis H37Rv growth inhibitors, H37Rv strain (AID 1626); inhibition, % at 10 µM, or IC50 in µM where a hit was titrated; M. tuberculosis H37Rv growth inhibition; higher % means a stronger effect; 220,000 compounds, 0.95% hits;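 active = confirmed in a dose series; inconclusive = inhibition above 80% but not taken into the dose series; inactive = below 80% or under 30% at every dose of the series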;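 note: bacteria incubated seven days before Alamar blue readout; 0% = bacteria only wells and 100% = bacteria with antibiotic wells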
RecA splice inh – Mtb RecA intein splicing inhibition; cell-free RecA intein splicing, fluorescence; P9WHJ3; inhibition, %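 (about 9 µM by stock and volumes)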; 290,000 compounds, 0.75% hits; in the data active = inhibition above about 30%; inconclusive = no clear call, values can overlap the other calls;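 note: 0% = vehicle wells and 100% = reference inhibitor control wells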
Target sequence (P9WHJ3 whole entry, looked up, canonical isoform): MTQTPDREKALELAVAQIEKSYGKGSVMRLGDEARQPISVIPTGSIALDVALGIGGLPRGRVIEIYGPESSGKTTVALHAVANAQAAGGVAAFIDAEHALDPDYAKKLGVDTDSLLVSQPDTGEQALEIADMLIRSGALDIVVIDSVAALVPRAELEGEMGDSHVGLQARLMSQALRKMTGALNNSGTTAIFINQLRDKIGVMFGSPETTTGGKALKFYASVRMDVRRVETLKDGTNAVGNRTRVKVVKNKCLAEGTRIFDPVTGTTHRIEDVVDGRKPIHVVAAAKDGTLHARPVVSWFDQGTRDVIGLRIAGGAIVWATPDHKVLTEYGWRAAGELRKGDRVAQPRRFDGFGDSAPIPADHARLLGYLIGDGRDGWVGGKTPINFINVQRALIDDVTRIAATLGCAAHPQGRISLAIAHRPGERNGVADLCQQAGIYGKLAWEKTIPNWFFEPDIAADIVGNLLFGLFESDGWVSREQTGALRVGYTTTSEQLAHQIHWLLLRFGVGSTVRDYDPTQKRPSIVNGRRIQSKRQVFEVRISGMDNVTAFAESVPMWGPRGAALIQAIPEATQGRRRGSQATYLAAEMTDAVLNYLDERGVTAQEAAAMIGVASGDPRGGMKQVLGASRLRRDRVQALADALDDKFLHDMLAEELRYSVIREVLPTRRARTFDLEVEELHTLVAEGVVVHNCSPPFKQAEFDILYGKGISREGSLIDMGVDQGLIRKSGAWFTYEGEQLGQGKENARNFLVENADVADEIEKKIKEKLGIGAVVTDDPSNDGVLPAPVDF
Arbovirus anti – antivirals against arbovirus infection; arbovirus infection cell-based antiviral screen; inhibition, % at 10 µM; 200,000 compounds, 0.37% hits;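 active = inhibition from about 30%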;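 note: bluetongue infection of BSR cells; cell survival read as ATP light after 72 h; 0% = infected wells without compound and 100% = uninfected wells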
YopH PTP inh – inhibitors of Yersinia enterocolitica YopH tyrosine phosphatase | fluorescence Ex485/Em525 | inhibition, %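 (about 10 µM by stock and volumes)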 | 140,000 compounds, 0.16% hits | AID 898;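 active = inhibition of 50% or more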;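 note: controls were vehicle for no effect and minimum signal wells for full effect; inactives centre near -20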
Arbovirus anti repeat – recorded beside Arbovirus anti, whose call it bears; inhibition, %; measured here: 10K subset replicate screen; many hits read low in the repeat;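 first of two repeat runs on a subset; 0% = infected and 100% = uninfected wells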
* hit, by the source's call; ? = inconclusive; nt = not tested or not shown.

SMILES | Mtb bLac sens | Mtb growth | RecA splice inh | Arbovirus anti | YopH PTP inh | others
O=C1N(c2cccc(Cl)c2)C(c2cccnc2)N2CCCN12 (stereo not given) | 13 | 1% | -0.2 | -6 | nt
Cc1cccc(C)c1OCC(=O)Nc1ccc2c(c1)C(=O)NC2=O | 10 | nt | -2.6 | nt | nt
CCOc1ccccc1N(CC(=O)O)S(=O)(=O)c1ccc(C)cc1 | -2 | -6% | 0.5 | 0 | -32
CCn1nc(C(=O)NCC(c2cccs2)N2CCOCC2)c2ccccc2c1=O (stereo not given) | -17 | nt | 6.4 | nt | nt
Cc1ccc(-c2nnc(SCC(=O)N3CCCc4ccccc43)n2N)cc1 | -5 | 1% | -0.3 | 4 | -28
O=C(COC(=O)c1ccc(F)cc1)NCCc1ccc(F)cc1 | 9 | -4% | 0.3 | 6 | nt
CCOC(=O)c1c(NC(=O)c2cccc([N+](=O)[O-])c2C(=O)O)sc2c1CCCC2 | -9 | nt | 1.9 | nt | nt
Cc1c(C=O)c2ccccc2n1Cc1cccc(F)c1 | 3 | 9% | 2.6 | 16 | -19
Cc1cccc(C(=O)C2CCN(S(=O)(=O)c3ccc(C(=O)O)cc3)CC2)c1 | -5 | nt | -4.8 | nt | nt
COc1ccc(Cl)cc1N(C(=O)c1ccco1)C(C(=O)NC1CCCC1)c1ccncc1 (stereo not given) | 2 | nt | 3.0 | nt | nt
Cc1ccc(S(=O)(=O)N(C)C)cc1NC(=O)CN1C(=O)NC(Cc2c[nH]c3ccccc23)C1=O (stereo not given) | -5 | -17% | -0.4 | nt | nt
Cc1nc(N)sc1-c1csc(Nc2cccc(O)c2)n1 | -4 | nt | -2.7 | nt | nt
CC1CC(C)CN(C(=O)C2CCCN(c3ncnc4c3nc3n4CCCCC3)C2)C1 (stereo not given) | 5 | nt | 3.6 | nt | nt
CC1CCCC(C)N1C(=O)Nc1cccc(Cl)c1 (stereo not given) | -14 | -1% | -3.5 | 0 | -35
CCOc1ccc(NC(=O)c2cccnc2Cl)c([N+](=O)[O-])c1 | 9 | 7% | -0.6 | -1 | -26
COc1ccc(S(=O)(=O)N(C)C)cc1NCC(=O)Nc1ccc(Br)cc1F | -4 | 2% | -6.6 | 7 | -24
Cc1ccc(C(c2nnnn2CC2CCCO2)N2CCN(C)CC2)cc1 (stereo not given) | -5 | -1% | 0.9 | 6 | nt
CC(NC(=O)c1ccc(N(C)C)c([N+](=O)[O-])c1)c1ccc(-n2ccnc2)cc1 (stereo not given) | -4 | nt | 0.2 | nt | nt
CCOC(=O)c1sc(NC(=O)c2sccc2C)cc1C | -2 | -5% | -0.9 | -16 | -21
CC(C)=CCN1CCN(Cc2cccn2-c2nccs2)CC1CCO (stereo not given) | -5 | 0% | -4.8 | 3 | nt
COCC(C)NC(=S)NC(=O)c1cc(S(=O)(=O)N2CCOCC2)ccc1C (stereo not given) | 1 | 5% | -1.8 | 6 | nt
Cn1c(SCC(=O)N2c3ccccc3Sc3ccc(Cl)cc32)nnc1-c1ccco1 | -3 | 0% | nt | 13 | -36
Cc1nn2c3ccccc3n(C)c2nc1=O | 2 | -5% | -5.5 | -4 | -21
CN(C)C(=O)Oc1ccc(Cl)c2cccnc12 | 0 | -5% | -3.5 | 3 | nt
Cc1ccc2c(c1)N(Cc1ccc3c(c1)OCO3)C(=O)C(C)O2 (stereo not given) | 1 | 9% | 1.1 | -8 | -45
CCc1ccccc1NC(=O)C1CCN(C(=O)c2ccc([N+](=O)[O-])cc2)CC1 | 5 | 3% | -2.3 | 4 | nt
Cc1[nH]c2ccccc2c1C(=O)CSc1ccc(F)cc1 | 9 | 3% | 2.9 | 7 | -29
CC(C)Cc1cc(CN2CCCC(CO)(Cc3cccc(Cl)c3)C2)[nH]n1 (stereo not given) | 2 | 5% | -1.1 | -25 | nt
CC1CCN(C(=O)c2ccccc2NC(=O)Nc2ccccc2)CC1 | -1 | nt | 2.6 | nt | nt
COC(=O)c1ccccc1NC(=O)COC(=O)/C=C/c1ccco1 | 31 | 12% | 0.7 | 14 | nt
CN(CC(=O)Nc1ccccc1-c1ccccc1)C1CCCCC1 | 0 | 1% | 12 | -20 | -9
S=C(NCCN1CCOCC1)Nc1ccc(-c2nc3ccccc3[nH]2)cc1 | 5 | -1% | 4.6 | 3 | nt
CCOC(=O)CC(=O)CSc1nnc2sc3ccccc3n12 | -3 | -4% | nt | -5 | -35
COC(=O)c1sc(NC(=O)c2c(OC)cccc2OC)c(C#N)c1C | -8 | 2% | -3.4 | -7 | nt
COc1ccc(Cl)cc1NC(=O)CN(C)C(=O)CCCc1c[nH]c2ccccc12 | -9 | nt | 1.5 | nt | nt
Brc1ccc(-c2ccc(/C=N/Nc3nc(N4CCOCC4)nc(N4CCOCC4)n3)o2)cc1 | 97 | ? | -1.4 | 1 | nt
Cc1ccccc1-c1n[nH]c(=S)o1 | 21 | -9% | 3.0 | 5 | -9
Cc1ccc(NS(=O)(=O)c2ccc3c(c2)NC(=O)CO3)cc1Cl | 0 | nt | -1.5 | nt | nt
Cc1ccc(N(C)S(=O)(=O)c2cc(-c3cnc(C4CC4)o3)ccc2C)cc1 | 71 | nt | -4.5 | nt | nt
CCOc1ccc(NS(=O)(=O)CC23CCC(CC2=O)C3(C)C)cc1 (stereo not given) | 2 | -10% | -3.2 | -10 | -1
CCOC(=O)C[C@H]1c2ccc(C(F)(F)F)cc2S(=O)(=O)N1C(C)C | -4 | -8% | -2.8 | nt | nt
CCn1cc(C(=O)C(F)(F)F)c2ccccc21 | 1 | -3% | -0.4 | 10 | -41
CCCCn1c(N)c(N(CCOC)C(=O)c2cccc(S(=O)(=O)N3CCCCCC3)c2)c(=O)[nH]c1=O | -5 | nt | 0.8 | nt | nt
FC(F)(F)c1cc(-c2ccco2)nc(N2CCN(c3ccccc3)CC2)n1 | -1 | -9% | -1.2 | -7 | -10
CC(=O)c1c(C(=O)O)[nH]c(C(=O)O)c1C | 5 | 10% | 3.3 | 7 | nt
S=C(Nc1ccc(Nc2ccccc2)cc1)NN1CCOCC1 | 2 | 2% | nt | nt | nt
CCCN1CNC(=S)N(Cc2ccccc2)C1 | -8 | -2% | -1.3 | 5 | -19
COc1ccccc1-n1cnc2cc(C(=O)NCCCN3CCOCC3)ccc21 | 18 | 5% | 2.8 | 3 | -4
COCCCNC(=O)CNC(=S)N(Cc1ccccc1)Cc1cccnc1 | -9 | 1% | 1.5 | 0 | nt
CCCCSCCCNC(=O)c1cn(C)c2ccc(S(=O)(=O)N3CCCC3)cc2c1=O | 3 | nt | -1.4 | nt | nt
Cc1ccc2c(CC(=O)O)coc2c1 | -4 | -2% | -0.2 | 4 | -33 | Arbovirus anti repeat=0
CCC1(C)N(O)C(C)(C)C(c2ccc(OC)cc2)=[N+]1[O-] (stereo not given) | 5 | 0% | -4.4 | -2 | -34
CCN(CC(=O)Nc1ccccc1OC)CC(=O)Nc1ccccc1C(F)(F)F | -6 | 8% | -1.1 | -13 | nt
COC(=O)[C@@H](Cc1ccccc1)NC(=O)[C@H]1CCC(=O)N1C(=O)OCc1ccccc1 | -10 | nt | -1.0 | nt | nt
COc1ccc(N2C(=O)C3CCCN3C2=O)cc1 (stereo not given) | 1 | -4% | 0.4 | 0 | 5
O=C(CCNc1cc(Cl)cc(Cl)c1)c1ccco1 | 73 | 43% | 9.4 | 8 | -34
COc1ccc(-c2noc(-c3ccoc3C)n2)cc1 | 6 | -9% | 10.0 | -16 | nt
Cc1cc2[nH]c(=O)c(=O)[nH]c2cc1S(=O)(=O)NC1CCCCC1C (stereo not given) | -8 | nt | 1.8 | nt | nt
CC(=O)Nc1nc(C)c(-c2csc(Nc3ccc(O)cc3)n2)s1 | 1 | 1% | nt | -2 | 18
C=CCn1c(Cc2nc3ccc(Cl)cc3[nH]2)n[nH]c1=S | -1 | 0% | nt | 5 | -3

Pulled by compound from above (two):
SMILES | Mtb bLac sens | Mtb growth | RecA splice inh | Arbovirus anti | YopH PTP inh | others
CC(C)=CCN1CCN(Cc2cccn2-c2nccs2)CC1CCO (stereo not given) | -5 | 0% | -4.8 | 3 | nt
COCCCNC(=O)CNC(=S)N(Cc1ccccc1)Cc1cccnc1 | -9 | 1% | 1.5 | 0 | nt

Structures shown so far that have an aryl thioether with sulfur outside any ring:
SMILES | Mtb bLac sens | Mtb growth | RecA splice inh | Arbovirus anti | YopH PTP inh | others
Cc1ccc(-c2nnc(SCC(=O)N3CCCc4ccccc43)n2N)cc1 | -5 | 1% | -0.3 | 4 | -28
Cn1c(SCC(=O)N2c3ccccc3Sc3ccc(Cl)cc32)nnc1-c1ccco1 | -3 | 0% | nt | 13 | -36
Cc1[nH]c2ccccc2c1C(=O)CSc1ccc(F)cc1 | 9 | 3% | 2.9 | 7 | -29
CCOC(=O)CC(=O)CSc1nnc2sc3ccccc3n12 | -3 | -4% | nt | -5 | -35

Remaining list, next part:
SMILES | Mtb bLac sens | Mtb growth | RecA splice inh | Arbovirus anti | YopH PTP inh | others
Cc1ccc(C(=O)C2=C(O)C(=O)N(Cc3cccnc3)C2c2ccc(OC(C)C)cc2)o1 (stereo not given) | -4 | nt | 2.1 | nt | nt
O=S(=O)(NCC1NCCc2ccccc21)c1ccccc1 (stereo not given) | 0 | 4% | 6.0 | 8 | nt
COC(=O)c1ccc(S(=O)(=O)N2CCCN(Cc3cccc(Br)c3F)CC2)n1C | -6 | 7% | 7.3 | nt | nt
COCCCN(C(=O)CCSc1ccc(F)cc1)c1c(N)n(Cc2ccccc2)c(=O)[nH]c1=O | 1 | nt | -2.3 | nt | nt
CCOc1ccc(S(=O)(=O)Nc2cc(Cl)ccc2O)cc1 | -2 | 0% | -5.7 | -40 | -16
CN1CC(=O)N/C1=N\C(=O)Nc1ccc(O)cc1 | -7 | nt | -7.8 | nt | nt
N#CCC(=O)Nc1ccc(C(=O)NCC(c2ccco2)N2CCCCC2)cc1 (stereo not given) | -6 | 2% | 0.1 | 8 | nt
CC(C)(C)C(=O)N1CCN(c2ccc([N+](=O)[O-])cc2-n2cccc2)CC1 | 41 | -13% | 2.1 | nt | nt
CSc1nc(-c2ccco2)nn1C(=O)Cc1ccccc1 | -5 | -14% | 2.6 | 0 | -9
CCOC(=O)c1c(NC(=O)COC(=O)c2cc(OC)c(OC)cc2[N+](=O)[O-])sc(C)c1C | -6 | 1% | 2.4 | -14 | -28
S=c1[nH]nc(/C=C/c2ccccc2)o1 | 2 | 9% | 1.2 | -1 | nt
Cc1ccc(C)c(NC(=O)CCN2C(=O)c3ccccc3C2=O)c1 | -5 | nt | -3.2 | nt | nt
COc1ccc(N2CCN(C(=O)CC(NC(N)=O)c3cccc(Oc4ccccc4)c3)CC2)cc1 (stereo not given) | -4 | -5% | -1.0 | 1 | -56
COc1cc(C2C(C#N)=C(N)N(N(C)C)C3=C2C(=O)CCC3)ccc1O (stereo not given) | 8 | nt | -1.2 | nt | nt
Cc1cc(C)n2nc(CC#N)c(C#N)c2n1 | 4 | -3% | -0.8 | 15 | nt
CCOc1ccc(C(C)=O)cc1Cn1c(=O)oc2ccccc21 | 0 | nt | -1.3 | nt | nt
Cn1nccc1C(=O)N1CCN(c2ncccn2)CC1 | 4 | 5% | -0.1 | 3 | nt
O=C(NN1CCOCC1)c1ccc(Br)cc1 | -9 | nt | -0.3 | nt | nt
O=C(Oc1cccc2ccccc12)c1cc(Cl)nc2ccccc12 | 20 | 7% | 2.0 | -1 | -2
COc1cccc(CSc2nc3sc(C)c(C)c3c(=O)n2Cc2ccco2)c1 | 5 | 0% | 0.6 | 21 | -30 | Arbovirus anti repeat=13
N#CC1=C(SCC(N)=O)NC(=O)CC1c1ccccc1Cl (stereo not given) | 4 | -8% | -0.1 | 2 | -39 | Arbovirus anti repeat=11
O=C(O)c1cc(N/N=C/c2c(O)ccc3ccccc23)ccc1Cl | 6 | nt | -2.7 | nt | nt
CC(C)n1c(CN(C)Cc2ccccc2)nc2c1c(=O)n(C)c(=O)n2C | 3 | nt | -0.6 | nt | nt
CCOc1[nH]n(-c2ccc(Cl)cc2)c(=O)c1C=Nc1ccc(O)cc1 | ? | -8% | nt | -14 | -63
Cc1cc(N2C(=O)c3ccc(C(=O)Nc4ccccc4O)cc3C2=O)no1 | -2 | nt | -0.3 | nt | nt
COc1ccc(C(=O)NC(=S)Nc2ccc(CN3CCOCC3)cc2)cc1 | 39 | 10% | -1.6 | nt | nt
CC(CNC(=O)c1cncc(O)c1)NC(=O)c1cncc(O)c1 (stereo not given) | -7 | -8% | -0.6 | 1 | -12
CCOc1ccc(NC(=O)COc2ccccc2)c([N+](=O)[O-])c1 | -2 | 6% | -4.2 | -4 | nt
COCc1cc(OC)nc(-c2csc(C)n2)n1 | 1 | 5% | 0.5 | nt | nt

High-throughput results deposited in PubChem by several laboratories.

An excerpt; rates above refer to the full screens.
